Screens as filed in PubChem BioAssay.
Resorufin fluor: qHTS Assay for Spectroscopic Profiling in Resorufin Spectral Region; Compound fluorescence, resorufin region 547/598 nm, buffer; active compounds read high; max dye-equivalent concentration, M; actives 0.04% (n = 59,000); AID 588, 2007; active = above 10 nM dye equivalent; inconclusive = 1 to 10 nM; inactive = 1 nM or less; a few of its hits are not listed in these tables; also: highest value over a series up to 38 µM
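Intrinsic fluorescence profiled in the resorufin window (ex 547 nm, em 598 nm) after 15 min at room temperature in pH 8.0 Tris buffer (100 mM); responses normalized against a six-point resorufin standard series as dye-equivalent concentration.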
TSHR agonist: qHTS Assay for Agonists of the Thyroid Stimulating Hormone Receptor; Thyrotropin receptor (Homo sapiens), P16473; HEK293-CNG-TSHR cells (CNG channel as cAMP sensor), membrane potential dye, cAMP; Potency, µM (doses to about 57.1 µM), for the others: at the highest dose activation, usual class: activators; actives 0.48% (n = 73,000); AID 926, 2007; active = well fitted activation curve of enough size with the parental cells flat; inconclusive = any curve in the parental cells; inactive = parental cells flat and receptor cells flat or falling; also: potency is read from the fitted curve at half-maximal effect; % of control where 0% means no effect; weak receptor curves with flat parental cells got no call and are not listed
Target sequence (P16473 whole entry, looked up): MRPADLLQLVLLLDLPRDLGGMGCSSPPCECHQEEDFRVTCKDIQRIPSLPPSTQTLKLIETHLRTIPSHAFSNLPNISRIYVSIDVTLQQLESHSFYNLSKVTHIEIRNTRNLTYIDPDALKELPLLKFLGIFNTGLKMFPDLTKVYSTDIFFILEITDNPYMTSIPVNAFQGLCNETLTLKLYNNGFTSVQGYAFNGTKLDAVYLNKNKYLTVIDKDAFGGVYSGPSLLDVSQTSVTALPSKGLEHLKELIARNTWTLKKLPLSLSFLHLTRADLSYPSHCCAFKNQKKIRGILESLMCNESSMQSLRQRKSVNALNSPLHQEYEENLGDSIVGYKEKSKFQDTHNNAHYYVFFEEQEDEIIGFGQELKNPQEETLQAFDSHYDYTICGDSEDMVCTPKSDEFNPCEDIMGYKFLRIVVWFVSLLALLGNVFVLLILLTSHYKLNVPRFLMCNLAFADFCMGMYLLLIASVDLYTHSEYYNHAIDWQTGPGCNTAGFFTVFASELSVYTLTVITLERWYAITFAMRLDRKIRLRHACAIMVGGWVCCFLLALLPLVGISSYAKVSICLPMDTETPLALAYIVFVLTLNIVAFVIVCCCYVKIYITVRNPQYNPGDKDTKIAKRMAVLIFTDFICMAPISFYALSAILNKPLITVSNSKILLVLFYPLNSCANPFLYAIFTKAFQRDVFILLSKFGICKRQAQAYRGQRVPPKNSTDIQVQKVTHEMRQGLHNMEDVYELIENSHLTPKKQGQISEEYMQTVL
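cAMP rise detected as CNG-channel membrane depolarization by fluorescent dye (emission 590 nm), 30 min after compound, following 60 min dye loading containing 100 uM RO 20-1724 at room temperature. Cells: TSHR/CNG HEK 293, with parental CNG HEK 293 as control.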
A488 fluor: qHTS Assay for Spectroscopic Profiling in A488 Spectral Region | AID 591, 2007 | actives 0.1% (n = 59,000) | compound autofluorescence, A488 spectral region, dye equivalency; active compounds read high | max dye equivalency, M; active = above 10 nM dye equivalent; inconclusive = 1 to 10 nM; inactive = 1 nM or less; about half of its hits are not listed in these tables;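 also: highest value over a series up to 38 µM; compound alone in buffer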
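Autofluorescence read at ex 480/em 540 nm after 15 min RT in 100 mM Tris pH 8.0; compound signal normalized to A488 standard series on each plate, reported as dye-equivalent concentration at each test concentration.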
AID923: qHTS Assay for Allosteric/Competitive Inhibitors of Caspase-1: Spectroscopic Profiling in AFC Spectral Region; compound fluorescence, AFC spectral region (405/520 nm); almost no hit is shown here; Potency, µM (titrated, usually from 57.5 µM), for inactives: at the highest dose fluorescence increase, usual class: activators; actives 1.1% (n = 75,000); active = well fitted activation curve with a large enough effect; inconclusive = small, poorly fitted or top-dose-only effect;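 also: potency is read from the fitted curve at half-maximal effect; 0% is about no effect; scaled to a free AFC standard on each plate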
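Compound autofluorescence profiled at 405 nm ex/520 nm em during kinetic caspase 1 run (50 nM enzyme, 5 uM Ac-WEHD-AFC, HEPES pH 7.5, 10 mM DTT). Titration up to 57 uM; baseline from regression intercept, normalized to AFC standard curve.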
A647 fluor: qHTS Assay for Spectroscopic Profiling in A647 Spectral Region; Compound fluorescence, A647 channel (570/671 nm), Tris buffer; max dye-equivalent concentration, M; 59,000 tested, under 10 active; AID 592, 2007; active means above 1 µM dye equivalent; inconclusive means 0.1 to 1 µM; inactive means 0.1 µM or less;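 also: values scaled relative to a standard on each plate; highest value over a series up to 38 µM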
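Tris 100 mM pH 8.0; cpd + A647 stds pin-transferred; 15 min RT; CCD imager, ex 570/em 671. Output = A647-equivalent conc. per cpd conc.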
* marks the source's active call; other numbers are inactive results; i = inactive; ? = inconclusive; . = no result given; & = joins results of further samples; [ ] = remark or other dose. This is a subset; count on the stated rates, not on these rows.

Preview, 2 compounds:
Screens in order – Resorufin fluor | TSHR agonist | A488 fluor | AID923 | A647 fluor
O=C(CN(Cc1ccco1)C(=O)CCC(=O)Nc1ccccn1)NCCc1ccccc1
 : i | -0.4% | i | -1.2% | 2.11e-08
Cc1cc(N2C(=O)C(=O)/C(=C(/O)c3ccccc3)C2c2cccc(Br)c2)no1 (stereo not drawn)
 : i | . | i | . | 1.8e-09

The list itself, previewed entries included:
Screens in order – Resorufin fluor | TSHR agonist | A488 fluor | AID923 | A647 fluor
O=C(CN(Cc1ccco1)C(=O)CCC(=O)Nc1ccccn1)NCCc1ccccc1
 : i | -0.4% | i | -1.2% | 2.11e-08
Cc1cc(N2C(=O)C(=O)/C(=C(/O)c3ccccc3)C2c2cccc(Br)c2)no1 (stereo not drawn)
 : i | . | i | . | 1.8e-09
CCn1c(SCC(=O)Nc2ccccc2F)nc2c(c1=O)SC(C)C2 (stereo not drawn)
 : i | ? | i | -1.2% | 9.5e-09
CCc1c(O)nc(SCC(=O)Nc2ccccc2)n(-c2ccccc2)c1=O
 : i | 5.2% | i | -1.4% | 1.4e-09
COc1ccc(C2C(C(=O)Nc3cccc(C)n3)CCC(=O)N2c2ccc(OC)cc2)cc1 (stereo not drawn)
 : i | -6.2% | i | 0.4% | 1e-09
COc1cccc(CN2CCNC(=O)C2CC(=O)O)c1OC (stereo not drawn)
 : . | 0.7% | . | 0.6% | .
O=C(Cc1n[nH]c(=O)c2ccccc12)OCC(=O)c1ccc2c(c1)OCCO2
 : i | 3.1% | i | 0.7% | 6e-09
O=c1c(-c2ccccc2)nc2cncnc2n1C1CC1
 : i | ? | i | 0.0% | 3.94e-08
COC(=O)CSc1nnc(-c2cnccn2)n1C
 : i | -0.5% | i | 0.2% | 1.39e-08
COc1ccc(CNC(=O)CN(CC2CCCO2)C(=O)CNS(=O)(=O)c2ccccc2)cc1 (stereo not drawn)
 : i | ? | i | 0.5% | 2e-09
CC(=O)N1CCC2(CC1)CN(c1ccncc1)C2
 : i | 0.4% | i | 0.3% | 3.17e-08
O=C(Nc1ccc(F)c(F)c1)c1ccc2c(c1)OCO2
 : . | 26.0% | . | 0.3% | .
COc1ccc(CCN2C(=O)C3C4C=CC(C4)C3C2=O)cc1OC (stereo not drawn)
 : i | -0.2% | i | -5.7% | 1.68e-08
NNC(=O)[C@@H](O)[C@H](O)C(=O)NN
 : i | 8.7%[11.4 µM] | i | 2.7%[11.5 µM] | 6.5e-09
COc1ccccc1C(=O)NCCn1cc(SCC(=O)Nc2nnc(C)s2)c2ccccc21
 : i | 8.4% | i | 0.1% | 1.32e-08
COc1ccccc1CCn1cnc2c3cc(C)ccc3n(C)c2c1=O
 : i | . | i | 1.7% | 1e-09
C=CCn1c(N)c(C(=O)NCC2CCCO2)sc1=S (stereo not drawn)
 : i | 8.1% | i | -0.6% | 3.9e-08
Cc1[nH]c(=O)[nH]c(=O)c1S(=O)(=O)N1CCCC(C(=O)NCCc2ccc(Cl)cc2)C1 (stereo not drawn)
 : i | -2.7% | i | -1.9% | 2.05e-08
O[C@H](CCCN1CCN(c2ncc(F)cn2)CC1)c1ccc(F)cc1
 : . | 8.6% | . | -1.0% | .
Cc1ccc(S(=O)(=O)NC(CC(=O)NC2CCCC2)c2ccco2)cc1 (stereo not drawn)
 : i | 0.9%[11.4 µM] | i | 0.4% | 1.9e-09
O=C(NC1(C(F)(F)F)NC(=O)N(Cc2ccco2)C1=O)c1cccnc1 (stereo not drawn)
 : i | 1.3% | i | 2.4% | 1e-09
O=C(C1CCCN(S(=O)(=O)c2ccccc2)C1)N1CCCCCC1 (stereo not drawn)
 : . | 10.4% | . | 1.3% | .
CCN(CC)Cc1cc2ccccc2c2c1COC2
 : i | . | i | -1.5% | 9.9e-09
Cc1nnc(SCCn2c(N3CCCC(C)C3)nc3c2c(=O)n(C)c(=O)n3C)s1 (stereo not drawn)
 : . | -21.5% | . | -2.2% | .
O=C(CSc1nc2ccc(S(=O)(=O)N3CCOCC3)cc2[nH]1)N1CCOCC1
 : i | 0.9% | i | 1.3% | 6.2e-09
CC(C)(C)c1ccccc1OCCN1CCCC1
 : . | 18.1% | . | 1.7% | .
CC(C)CSc1nc2c(c(=O)[nH]c(=O)n2C)n1CC(O)COc1cccc2ccccc12 (stereo not drawn)
 : i | ? | i | -0.3% | 2.27e-08
COc1ccc(/C(O)=C2/C(=O)C(=O)N(CCN(C)C)C2c2ccccn2)cc1OC (stereo not drawn)
 : i | . | i | . | 2.82e-08
Cc1nc(Nc2ccccc2)c2nc(-c3ccccc3)n(CCCN3CCCCC3C)c2n1 (stereo not drawn)
 : . | -25.7% | . | 0.1% | .
CCOC(=O)c1c(NC(=O)c2nn(CC)cc2Br)sc2c1CCCCC2
 : i | 7.1% | i | -2.3% | 6.3e-09
COCCN(CC(=O)NCc1ccc(OC)cc1)C(=O)CCC(=O)Nc1nccs1
 : i | -1.9% | i | -2.6% | 3.4e-08
CCc1c(C)nc2ncnn2c1N1CCC(C(=O)Nc2cccc(C(C)=O)c2)CC1
 : i | 5.0% | i | 1.2% | 8.1e-09
Cc1ccc2oc(=O)ccc2c1
 : . | 7.1% | . | 4.1% | .
Cc1ccc(-c2nnn(CC(=O)Nc3cccc4c3CCCC4)n2)o1
 : i | -26.5% | i | -1.2% | 2.49e-08
CC(CCC(=O)Nc1nncs1)C(=O)O (stereo not drawn)
 : . | 4.5% | . | -1.3% | .
CCCC(=O)NCCCc1nc2ccccc2n1CC
 : . | 2.1% | . | 1.4% | .
C=CCn1c(SCC(=O)N2CCOCC2)nc2scc(-c3ccco3)c2c1=O
 : i | 8.0% | i | 4.3% | 2.11e-08
COCCn1c(=O)[nH]c2cc(C(=O)N3CCN(c4ccccc4OC)CC3)ccc2c1=O
 : i | -4.0%[11.4 µM] | i | 0.7% | 1e-09
CC(=O)Nc1cccc(C(=O)OCc2ccccc2)c1
 : i | 1.7% | i | 0.3% | 5.6e-08
Cc1cnc(C)c(N2CCC(C(=O)NCc3ccco3)CC2)n1
 : i | 3.0% | i | 1.5% | 4.4e-09
Cc1nc2c(n1O)CCC/C2=N\O
 : i | 2.1% | i | -0.2% | 5.06e-08
CCOC(=O)CCCNC(=O)COC(=O)c1cccc(C)c1O
 : i | -0.8%[11.4 µM] | i | -0.7% | 3.99e-08
COc1ccc(OC)c(NC(=O)CSc2nnc(C)n2Cc2ccccc2)c1
 : i | -0.7% | i | -1.1% | 1.19e-08
Cc1cc(C(=O)NC(C)C)on1
 : i | 12.0% | i | 0.6% | 1e-09
CC1(C)CC(=O)C2=C(C1)Nc1ccccc1NC2c1nc2ccccc2[nH]1 (stereo not drawn)
 : . | 5.0% | . | -1.2% | .
O=C(COC(=O)CNC(=O)c1ccc(Br)o1)Nc1ccc2c(c1)OCCO2
 : i | 4.5% | i | -0.3% | 1e-09
CCOc1ccc(CNC(=O)C(CC)n2nc(C)n3c(cc4occc43)c2=O)cc1OC (stereo not drawn)
 : . | 20.5% | . | 1.2% | .
Cc1cc(C)c2c(n1)nn1c(NCCCN3CCOCC3)cc(C)nc21
 : i | 6.6% | i | 15.0% | 3.51e-08
CCS(=O)(=O)N1CCN(C(=O)CC(C)C)CC1
 : i | -1.2% | i | 0.9% | 2.22e-08
O=C(c1cnccn1)N1CCC2(CC1)CN(Cc1nccs1)C2
 : i | -1.1% | i | 3.3% | 3.1e-09

(continued)
Screens in order – Resorufin fluor | TSHR agonist | A488 fluor | AID923 | A647 fluor
Oc1ccc(-c2nc(-c3ccc(O)c(O)c3)cs2)cc1
 : . | ? | . | -0.1% | .
NC1=CC(=O)c2cccc3cccc1c23
 : i | -2.4% | ? | 8.7% | 2.59e-08
COc1cccc(NS(=O)(=O)c2cc(C)sc2C)c1
 : i | 2.3% | i | 1.4% | 6.4e-09
CC(=O)N(C(C)=O)c1ccc2nc(C)[nH]c(=O)c2c1
 : i | -7.8% | i | 1.4% | 1.64e-08
COc1cccc(OC)c1C(=O)Nc1ccc(CN2CCCCC2)cc1
 : i | -23.9% | i | 0.6% | 7e-09
Cc1nnc(SCc2cc(=O)[nH]c(N3CCN(Cc4ccccc4)CC3)n2)s1
 : i | 9.5% | i | -1.8% | 3e-09
CCC(c1nnnn1Cc1ccc(F)cc1)N(CCCO)Cc1cc2cc3c(cc2[nH]c1=O)OCO3 (stereo not drawn)
 : i | 13.4% | i | 14.1% | 4.7e-09
O=C(O)[C@@H](S)[C@H](S)C(=O)O
 : i | -7.6%[11.4 µM] | i | -0.4%[11.5 µM] | 1.2e-09
c1ccc2c(c1)CCCN2Cc1nnnn1CC1CCCO1 (stereo not drawn)
 : i | ? | i | 19.6% | 3.2e-09
CC(C)Oc1ccc(C2CC(=O)N(c3cccc(C(=O)O)c3)C2=O)cc1 (stereo not drawn)
 : . | -7.6% | . | -2.2% | .
CCc1nnc(NC(=O)CSc2nnc(COc3ccc(C#N)cc3)n2-c2ccccc2)s1
 : i | 5.1% | i | -0.2% | 6.11e-08
C[n+]1cc2c3c(ccc2c2ccc4cc5c(cc4c21)OCO5)OCO3
 : i | ? | ? | 2.5% | 3.7e-09&4.06e-08
CN(C)c1ccc(NC(=O)CC2NCCNC2=O)cc1 (stereo not drawn)
 : i | . | i | -0.9% | 8.75e-08
CCCn1c(=O)c(C)cn2nc(N)nc12
 : . | 10.2% | . | -3.2% | .
CC(Sc1nncs1)C(=O)NCc1ccc2c(c1)OCO2 (stereo not drawn)
 : i | 0.3% | i | -0.9% | 3.5e-09
CCOc1ccccc1N1CCN(C(=O)c2cc(C)oc2C)CC1
 : . | 2.1% | . | 0.5% | .
CCOC(=O)c1c(C)c(C(=O)NCc2cccs2)c(C)n1CC
 : i | 10.2%[11.4 µM] | i | 1.7% | 8.2e-09
C(=N\n1cnnc1)/c1cccnc1
 : i | . | i | . | 6.34e-08
COC(=O)C1=C(C)N(c2ccc(F)cc2)C(=O)C1
 : . | 3.7% | . | 0.3% | .
O=S(=O)(Nc1cccc2ccccc12)N1CCCC1
 : i | 21.7% | i | 0.3% | 1e-09
Cc1cc(C(=O)NCc2cc(C(=O)O)oc2C)c(C)o1
 : i | 3.2% | i | 4.6% | 3.82e-08
COC(=O)c1ccc(C(NC(=O)OCc2ccccc2)/C(C)=C/[C@@H](C)C(=O)N2CCN(C)CC2)cc1 (stereo partly drawn)
 : . | 16.5% | . | -0.1% | .
Cc1noc(N)c1C(=O)Nc1ccc(F)c(Cl)c1
 : i | 2.0%[11.4 µM] | i | -1.1% | 4.5e-09
CCCc1c(OCCCCc2nn[nH]n2)ccc(C(C)=O)c1O
 : i | ? | i | 1.6% | 1.1e-09
O=C(c1ccc(Cl)cc1)N1CCC(c2nc(-c3cccs3)no2)CC1
 : i | ? | i | 0.6% | 5.2e-09
O=C(CSc1nnc(-c2ccccc2Cl)o1)N1CCCCC1
 : . | ? | . | 4.1% | .
COc1ccc(CCN(Cc2nc3ccccc3c(=O)[nH]2)C(=O)c2ccco2)cc1OC
 : i | 1.3% | i | 1.1% | 1.6e-09
Cc1cc(C)c(C#N)c(SCc2[nH]nc3c2C(c2ccccc2)C(C#N)=C(N)O3)n1 (stereo not drawn)
 : i | . | i | . | 8.25e-08
Cc1cc(C(=O)Nc2ccc(S(=O)(=O)Nc3onc(C)c3C)cc2)c(C)o1
 : i | 12.3% | i | 0.8% | 1e-09
O=CNC(=O)c1ccccc1C(=O)O
 : i | . | i | . | 6.97e-08
CC(C)CCNC(=O)CCS(=O)(=O)c1cccc2nonc12
 : i | 4.6% | i | 0.4% | 2.59e-08
